Bioassay records (PubChem BioAssay)
EPAC1 antagonist: EPAC1 (human) antagonism. EPAC1 GEF assay, Rap1b-BODIPY-GDP exchange fluorescence. Potency, µM (series often up to 115 µM), inactives show at the highest dose activity change, negative = inhibition, actives largely listed as inhibitors. 0.14% of 360,000 active;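 also: plate controls were vehicle for no effect and positive control for full effect; nearly all actives have a fitted effect of over 50% in size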
Target sequence (O95398 whole entry, looked up): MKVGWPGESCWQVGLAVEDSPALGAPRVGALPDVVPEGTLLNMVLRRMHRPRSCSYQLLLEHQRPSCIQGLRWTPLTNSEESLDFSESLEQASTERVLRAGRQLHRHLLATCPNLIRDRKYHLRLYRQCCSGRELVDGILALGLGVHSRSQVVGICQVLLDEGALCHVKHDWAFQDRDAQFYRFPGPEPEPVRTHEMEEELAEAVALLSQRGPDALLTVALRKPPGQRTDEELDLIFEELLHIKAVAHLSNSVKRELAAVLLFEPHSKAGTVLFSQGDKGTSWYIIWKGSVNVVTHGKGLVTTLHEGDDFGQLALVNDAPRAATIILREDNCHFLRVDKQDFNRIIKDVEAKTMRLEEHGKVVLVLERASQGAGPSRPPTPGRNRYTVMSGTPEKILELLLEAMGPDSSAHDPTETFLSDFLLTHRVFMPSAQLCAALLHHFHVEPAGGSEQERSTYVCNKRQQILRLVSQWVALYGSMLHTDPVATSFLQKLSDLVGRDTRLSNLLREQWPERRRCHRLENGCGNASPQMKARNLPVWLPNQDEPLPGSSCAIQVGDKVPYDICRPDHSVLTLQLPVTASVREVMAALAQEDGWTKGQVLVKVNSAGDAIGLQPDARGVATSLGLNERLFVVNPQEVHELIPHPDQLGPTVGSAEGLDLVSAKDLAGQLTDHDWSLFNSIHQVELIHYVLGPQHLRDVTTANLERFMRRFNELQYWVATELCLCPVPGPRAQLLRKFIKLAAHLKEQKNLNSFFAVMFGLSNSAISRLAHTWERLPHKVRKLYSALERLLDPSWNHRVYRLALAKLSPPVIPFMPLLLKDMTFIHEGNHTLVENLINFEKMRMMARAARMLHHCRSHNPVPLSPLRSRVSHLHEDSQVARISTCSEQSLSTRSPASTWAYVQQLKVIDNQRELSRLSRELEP
aSyn rescue: rescues yeast growth from alpha-synuclein toxicity. Yeast expressing alpha-synuclein, growth rescue, BacTiter-Glo, 24 h. Potency, µM (top dose mostly 46.1 µM), for inactives: top-dose growth rescue (activation), most hits filed as activators. 0.14% of 370,000 active; also: % of control where 0% means no effect; nearly all actives have a fitted effect of over 65% in size
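Galactose-induced alpha-syn yeast (OD600=0.02, raffinose-pregrown) + pinned cpd, 24 hr, 30 deg C; growth by BacTiter-Glo luminescence. Growth restoration scores as activation.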
EPAC2 agonist: activates human EPAC2 exchange factor; EPAC2 activation, biochemical qHTS; response scale: 100% = 6.5 mM cAMP response; 0.079% of 360,000 active; Potency, µM (highest dose often 154 µM), without a hit: at the highest dose activation, hits mostly activators; Q8WZA2; AID 720711; also: nearly all actives have a fitted effect of over 50% in size
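In this primary screen, activation is scored as increased exchange of BODIPY-GDP from Rap1B by 100 nM EPAC2, with 50 uM GDP as competitor. Signal is normalized to the 6.5 mM cAMP agonist control.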
EPAC1 agonist: agonists of human EPAC1. 0.073% of 360,000 active. Potency, µM (titrated, usually from 154 µM), inactives show top-dose activation, actives largely listed as activators. O95398. EPAC1 agonist qHTS, biochemical assay; response scale: 100% = response to 6.5 mM cAMP; also: nearly all actives have a fitted effect of over 60% in size
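Multi-concentration qHTS readout: loss of Rap1B-bound BODIPY-GDP fluorescence driven by 100 nM EPAC1 with excess GDP (50 uM), monitored kinetically at room temperature; agonist response expressed relative to 6.5 mM cAMP.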
FUS yeast rescue: rescues growth of FUS-expressing yeast; 0.24% of 390,000 active; Potency, µM (series often up to 76.6 µM), for the others: top-dose growth rescue (activation), most hits filed as activators; AID 1347120; S. cerevisiae FUS-expressing, growth rescue, OD600, 24 h;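 also: plate controls were DMSO vehicle for no effect and reference control for full effect; nearly all actives have a fitted effect of over 55% in size; some results filed as inactive show a strong effect at the top dose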
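FUS-expressing yeast, raffinose-pregrown, induced in 2% galactose minimal medium at OD 0.005; compounds in a dilution series, 24hr at 30C. Growth restoration read as absorbance at 600 nm. CP55940 positive control, DMSO negative.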
EPAC2 antag: blocks human EPAC2 exchange factor | Q8WZA2 | EPAC2 GEF exchange of Rap1B-BODIPY-GDP, fluorescence | Potency, µM (top dose mostly 114 µM), for inactives: at the top dose activity, negative = inhibition, usual class: inhibitors | 0.18% of 360,000 active; also: % is scaled to controls: 0 for no effect and ±100 for the full control effect; nearly all actives have a fitted effect of over 45% in size; many of its hits are not listed in these tables
TDP-43 yeast inh: TDP-43 toxicity inhibition in yeast. 1.8% of 410,000 active. Potency, µM (titrated, usually from 46.1 µM), for inactives: top-dose growth rescue (activation), most hits filed as activators. AID 652104. TDP-43 expressing yeast growth rescue, BacTiter-Glo, 24 h; also: % of control where 0% means no effect; nearly all actives have a fitted effect of over 50% in size
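Yeast expressing TDP-43 (pregrown in raffinose, seeded at OD600=0.02 in galactose medium) exposed to compounds 24 hr at 30 deg C. Growth read by BacTiter-Glo luminescence; rescue of toxicity appears as increased signal.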
Numbers without * were called inactive; · = no result given; [ ] = dose if it differs, or a comment. Calls follow the shape of the dose curve; as a rule, active = well fitted curve in the direction sought with a large enough effect; inconclusive = small, poorly fitted or top-dose-only effect, or another doubt; inactive = no such curve, though single readings can be large; an effect the other way counts as inactive or inconclusive. Potency is read from the fitted curve at half-maximal effect.

SMILES	EPAC1 antagonist	aSyn rescue	EPAC2 agonist	EPAC1 agonist	FUS yeast rescue	EPAC2 antag	TDP-43 yeast inh
CC(=O)c1cccc(OC(=O)Oc2cccc(C(C)=O)c2)c1	-1.5%	7.3%	12.4%	6.3%	·	-10.3%	0.0%
CC(C)C(=O)Nc1ccnc(-c2cccnc2)n1	-1.6%	1.1%	-2.8%	9.5%	44.8%	-8.5%	-22.8%
CCCS(=O)(=O)N1CCC(C(=O)NCCN(CC)c2ccccc2)CC1	7.2%	1.6%	0.1%	-6.7%	27.9%	0.6%	11.7%
COc1ccc(-n2c(=O)c3ccccc3n(Cc3ccccc3C)c2=O)c(OC)c1	·	·	·	·	-10.4%	·	8.8%
Cc1nn(Cc2c(F)c(F)c(F)c(F)c2F)c(C)c1NC(=O)c1c([N+](=O)[O-])cnn1C	-12.2%	-1.8%	0.9%	5.3%	16.4%	0.1%	-12.9%
O=C(NCc1ccccc1)C1CC2CCCC(C1)C2=O (stereo not drawn)	0.0%	-5.4%	4.9%	0.6%	1.3%	20.9%	-18.4%
CC(C)N(CCn1c(SCC(=O)N2CC(=O)Nc3ccccc32)nc2ccccc2c1=O)C(C)C	1.2%	5.2%	-7.0%	-7.5%	20.9%	0.5%	-26.0%
c1csc(-c2ccnc3ncnn23)c1	13.0%	4.2%	15.7%	-7.4%	-21.5%	6.7%	14.7%
CCOC(=O)CSc1c(-c2ccccc2)c2cc(Cl)ccc2[nH]c1=O	-14.1%	8.9%	1.0%	-22.8%	40.6%	-2.0%	9.5%
COc1cccc(-c2nc(CS(=O)CC(=O)NCc3ccc4c(c3)OCO4)c(C)o2)c1 (stereo not drawn)	-9.2%	0.0%	12.1%	8.1%	0.7%	11.1%	-3.4%
O=C(NCc1ccc2c(c1)OCO2)c1cccc(N2CCCC2=O)c1	-5.2%	-7.0%	-1.1%	0.2%	-4.6%	9.4%	-20.6%
COc1ccccc1C1=NOC(COc2ccc3c(C)cc(=O)oc3c2)C1 (stereo not drawn)	-7.7%	3.1%	0.5%	9.9%	15.9%	-9.5%	-3.5%[1.82 µM]
COc1cccc(OC)c1C(=O)NC(=S)Nc1ccc2c(c1)Cc1ccccc1-2	9.5%	-3.4%	4.0%	0.7%	13.4%	5.7%[57.1 µM]	-6.4%
CN(C)S(=O)(=O)c1ccc(Cl)c(C(=O)NCc2ccco2)c1	5.6%	-1.8%	7.2%	7.1%	23.8%	2.8%	-18.1%

A portion from further up, for reference:
SMILES	EPAC1 antagonist	aSyn rescue	EPAC2 agonist	EPAC1 agonist	FUS yeast rescue	EPAC2 antag	TDP-43 yeast inh
COc1ccc(-n2c(=O)c3ccccc3n(Cc3ccccc3C)c2=O)c(OC)c1	·	·	·	·	-10.4%	·	8.8%
Cc1nn(Cc2c(F)c(F)c(F)c(F)c2F)c(C)c1NC(=O)c1c([N+](=O)[O-])cnn1C	-12.2%	-1.8%	0.9%	5.3%	16.4%	0.1%	-12.9%
O=C(NCc1ccccc1)C1CC2CCCC(C1)C2=O (stereo not drawn)	0.0%	-5.4%	4.9%	0.6%	1.3%	20.9%	-18.4%
CC(C)N(CCn1c(SCC(=O)N2CC(=O)Nc3ccccc32)nc2ccccc2c1=O)C(C)C	1.2%	5.2%	-7.0%	-7.5%	20.9%	0.5%	-26.0%
c1csc(-c2ccnc3ncnn23)c1	13.0%	4.2%	15.7%	-7.4%	-21.5%	6.7%	14.7%
CCOC(=O)CSc1c(-c2ccccc2)c2cc(Cl)ccc2[nH]c1=O	-14.1%	8.9%	1.0%	-22.8%	40.6%	-2.0%	9.5%
COc1cccc(-c2nc(CS(=O)CC(=O)NCc3ccc4c(c3)OCO4)c(C)o2)c1 (stereo not drawn)	-9.2%	0.0%	12.1%	8.1%	0.7%	11.1%	-3.4%
O=C(NCc1ccc2c(c1)OCO2)c1cccc(N2CCCC2=O)c1	-5.2%	-7.0%	-1.1%	0.2%	-4.6%	9.4%	-20.6%
COc1ccccc1C1=NOC(COc2ccc3c(C)cc(=O)oc3c2)C1 (stereo not drawn)	-7.7%	3.1%	0.5%	9.9%	15.9%	-9.5%	-3.5%[1.82 µM]

Complete entries, looked up by structure. Values in the order: EPAC1 antagonist	aSyn rescue	EPAC2 agonist	EPAC1 agonist	FUS yeast rescue	EPAC2 antag	TDP-43 yeast inh
c1csc(-c2ccnc3ncnn23)c1 in the list: 13.0%	4.2%	15.7%	-7.4%	-21.5%	6.7%	14.7%
COc1ccc(-n2c(=O)c3ccccc3n(Cc3ccccc3C)c2=O)c(OC)c1 in the list: ·	·	·	·	-10.4%	·	8.8%

These rows are one share of the data (hit frequency here may not be typical).
